D2 agonist – Beta-Arrestin HTS for Positive Allosteric Modulators of the Human D2 Dopamine Receptor: Agonists; 0.084% of 360,000 active; AID 624465, 2012; DiscoveRx PathHunter D2 beta-arrestin, luminescence, 90 min; 100% = 57 uM dopamine signal; activation, % (concentration not given with the values); D(2) dopamine receptor (Homo sapiens), P14416; in the data active = activation above about 40%; inconclusive = about 15% to 40%; inactive = below about 15%; also: compound concentration not given in the record; the text of the record calls up to 30% inactive
Target sequence (P14416 whole entry, looked up): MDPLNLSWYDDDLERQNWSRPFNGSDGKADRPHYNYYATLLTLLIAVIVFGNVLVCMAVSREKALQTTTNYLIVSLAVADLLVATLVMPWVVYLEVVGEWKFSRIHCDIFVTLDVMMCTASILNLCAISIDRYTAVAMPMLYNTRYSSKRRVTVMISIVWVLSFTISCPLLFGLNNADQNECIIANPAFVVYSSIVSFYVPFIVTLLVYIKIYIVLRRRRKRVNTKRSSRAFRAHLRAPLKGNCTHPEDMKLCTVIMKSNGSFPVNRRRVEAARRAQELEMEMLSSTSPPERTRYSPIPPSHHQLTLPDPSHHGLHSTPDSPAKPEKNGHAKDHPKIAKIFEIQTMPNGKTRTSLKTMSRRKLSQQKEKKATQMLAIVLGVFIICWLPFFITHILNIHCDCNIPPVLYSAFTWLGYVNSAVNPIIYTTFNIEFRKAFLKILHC
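Agonist mode: compounds alone added to overnight-plated D2 PathHunter cells for 90 min at 37 C, with 57 uM final dopamine (EC100) defining full response. Beta-arrestin recruitment detected by chemiluminescent reagent, read after 1 h at ambient temperature.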
Menin-MLL FL inh – qHTS Assay for Inhibitors Targeting the Menin-MLL Interaction in MLL Related Leukemias: Competition With Fluorescein Labeled MLL-derived Peptide | Fluorescence polarization, fluorescein-MLL peptide displacement from menin | FP activity change, % at 61.4 µM | 290,000 tested, under 10 active | AID 1766, 2009; inconclusive = falling polarisation curve, or a change in total fluorescence; inactive = total fluorescence flat and polarisation flat or rising; no compound was filed as active; the % refers to the polarisation; negative = inhibition;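 also: % of control where 0% means no effect; inhibitors lower the polarisation; unlabelled MLL peptide was the positive control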
gsp antag – qHTS for Antagonists of gsp, the Etiologic Mutation Responsible for Fibrous Dysplasia/McCune-Albright Syndrome: qHTS; gsp-mutant cells, cAMP HTRF, 30 min; control for the full effect not named in the record; Potency, µM (titrated, usually from 76.9 µM), inactives show top-dose activity change, negative = inhibition, actives largely listed as inhibitors; 0.4% of 340,000 active; active = falling curve of any shape with a large fitted effect; inconclusive = falling curve, mostly with a smaller effect; inactive = flat or rising curve; cell line not stated here;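 also: intracellular cAMP measured with PDE inhibitor Ro 20-1724 present during compound exposure; potency is read from the fitted curve at half-maximal effect; % is scaled to controls: 0 for no effect and ±100 for the full control effect; nearly all actives have a fitted effect of over 65% in size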
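Measurement of cellular cAMP by homogeneous time-resolved fluorescence following a 30 min compound exposure at 37C. The PDE inhibitor […] was present throughout; the assay buffer was DPBS with 0.05% BSA and 0.005% Tween 20.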
Sfp PPTase inh – qHTS Assay for Inhibitors of Bacillus subtilis Sfp phosphopantetheinyl transferase (PPTase); Biochemical Sfp PPTase activity, qHTS; Potency, µM, for inactives: max response, negative = inhibition, usual class: inhibitors; 3.5% of 310,000 active; AID 1490, 2009; active = well fitted inhibition curve with a large enough effect; inconclusive = small, poorly fitted or top-dose-only effect, or another doubt; inactive = no such curve, though single readings can be large or run the other way;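 also: the enzyme is Sfp with the accession as filed and its product quenches rhodamine fluorescence; potency is read from the fitted curve at half-maximal effect; 0% = enzyme reaction without inhibitor and -100% = no enzyme wells; top concentration of the series not given in the record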
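With Hepes-Na pH 7.6 buffer containing 10 mM MgCl2, Sfp (15 nM) modified BHQ-2-YbbR (12.5 uM) using rhodamine-CoA (5 uM). Two reads 30 minutes apart at 525/598 nm yielded each well's rate.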
PINK1 expr mod – A Quantitative High throughput Screen to Identify Chemical Modulators of PINK1 Expression; PINK1 immunofluorescence, high-content cytometry, 24 h; Potency, µM (highest dose often 76.6 µM), for the others: top-dose activation (PINK1 increase), most hits filed as activators; 0.2% of 410,000 active; AID 624263, 2012; active = well fitted activation curve with a large enough effect; inconclusive = small, poorly fitted or top-dose-only effect; inactive = flat fitted curve, though single readings scatter; cell line not stated here;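 also: potency is read from the fitted curve at half-maximal effect; % of control where 0% means no effect; nearly all actives have a fitted effect of over 65% in size; a mitochondrial uncoupler was the plate control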
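A stable cell line was treated with compounds at 5 concentrations for 24 hours, with CCCP as control. PINK1 levels and mitochondrial localization were measured by immunofluorescence with mitochondrial, cell and nuclear markers after fixation, read by laser-scanning cytometry.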
gsp ag – qHTS for Agonist of gsp, the Etiologic Mutation Responsible for Fibrous Dysplasia/McCune-Albright Syndrome: qHTS. AID 624287, 2012. Potency, µM (series often up to 76.9 µM), for inactives: top-dose activation (cAMP increase), most hits filed as activators. gsp mutant cells, cAMP HTRF, 30 min; control for the full effect not named in the record. 0.13% of 340,000 active; active = well fitted activation curve with a large enough effect; inconclusive = small, poorly fitted or top-dose-only effect, or another doubt; inactive = no such curve, though single readings can be large or run the other way; cell line not stated here;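 also: phosphodiesterase inhibitor Ro 20-1724 added with compounds to block cAMP breakdown; potency is read from the fitted curve at half-maximal effect; nearly all actives have a fitted effect of over 60% in size; about a fifth of the inactives were tested at one dose only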
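Cells stably selected in G418 were plated at 2000/well, grown 16-24 hr, then given compounds in DMSO with the PDE inhibitor […] (300 uM solution added) for 30 min at 37C; cAMP was read by HTRF.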
ClpP mod – qHTS Assay for Activators of ClpP; ATP-dependent Clp protease proteolytic subunit (Bacillus subtilis (strain 168)), P80244; purified B. subtilis ClpP, FRET peptide cleavage, 20 min; Potency, µM (titrated, usually from 57.5 µM), for the others: top-dose activity change, negative = active; 1.9% of 340,000 active; active = well fitted falling curve with a large enough effect; inconclusive = small, poorly fitted or top-dose-only effect; inactive = no such curve, though single readings can be large or run the other way; also: potency is read from the fitted curve at half-maximal effect; the source files actives as falling curves though it sought activators and does not explain the sign; nearly all actives have a fitted effect of over 65% in size; many hits overshoot -100%
Target sequence (P80244 whole entry, looked up): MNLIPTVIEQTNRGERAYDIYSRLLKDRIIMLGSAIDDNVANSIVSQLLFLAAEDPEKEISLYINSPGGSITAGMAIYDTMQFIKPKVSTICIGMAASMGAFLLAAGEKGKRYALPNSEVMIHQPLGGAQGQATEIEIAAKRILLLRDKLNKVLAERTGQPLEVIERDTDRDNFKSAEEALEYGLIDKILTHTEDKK
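Purified B. subtilis ClpP, 10 microg/mL final in Tris/HCl pH8 with KCl, BSA, glycerol and Tween-20, cleaved an Abz/nitrotyrosine-quenched decapeptide. Fluorescence (ex 320, em 430) was read at 0 and 20 min at room temperature. Delta was normalized to 5.8 microM ADEP and DMSO/no-enzyme controls.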
* hit, by the source's call; & = joins results of further samples; [ ] = dose if it differs, or a comment.

Results for O=C(CC1C(=O)OCN1C(=O)OCc1ccccc1)OCC(=O)c1ccccc1 (stereo unspecified) ?
D2 agonist: -2.4; Menin-MLL FL inh: 3.2; gsp antag: 2%[15.4 µM]; Sfp PPTase inh: 16%; PINK1 expr mod: -1.2%; gsp ag: -7%; ClpP mod: 1.8%

How did Cc1ccc(NC(=O)Cn2cnc3sc(C(=O)NCc4ccco4)c(C)c3c2=O)cc1Cl do in these assays?
D2 agonist: -1.8; Menin-MLL FL inh: 7.6; gsp antag: -5%; Sfp PPTase inh: -8%; PINK1 expr mod: 24%[38.3 µM]; gsp ag: 39%; ClpP mod: 7.7%

Results for CCCCNC(=O)Nc1ccc(Br)cn1 ?
D2 agonist: -3.5; Menin-MLL FL inh: 2.6; gsp antag: 9%; Sfp PPTase inh: 5%; PINK1 expr mod: 0.8%; gsp ag: inconclusive; ClpP mod: 3.4%

How did Cc1ccc(C)c(NC(=S)N=Nc2c(O)n(C)c3ccc(S(=O)(=O)N4CCOCC4)cc23)c1 do in these assays?
D2 agonist: 2.9; Menin-MLL FL inh: -1.3; gsp antag: -3%; Sfp PPTase inh: 12%; PINK1 expr mod: 1.0%; gsp ag: -8%; ClpP mod: 1.7%

What do the screens show for `COCCN1C(=O)N(c2ccccc2)C(=O)C1CC(=O)Nc1cc(OC)cc(OC)c1` (stereo unspecified)?
D2 agonist: -2.7; Menin-MLL FL inh: 0.5; gsp antag: -1%; Sfp PPTase inh: 7%; PINK1 expr mod: -0.3%; gsp ag: -2%; ClpP mod: -1.2%

Results for CC(=O)c1ccc(S(=O)(=O)N2CCN(C(=O)c3ccc(N)c([N+](=O)[O-])c3)CC2)cc1 ?
D2 agonist: 3.2; gsp antag: -14%; PINK1 expr mod: -0.7%; gsp ag: 3%; ClpP mod: -1.1%

What do the screens show for `C=CCn1c(CCc2ccc(OC(C)C)cc2)n[nH]c1=S`?
D2 agonist: 11; Menin-MLL FL inh: -10; gsp antag: -5%; Sfp PPTase inh: 14%; PINK1 expr mod: -0.6%; gsp ag: -67%[inhibitor]; ClpP mod: 0.3%

Results for COC(=O)c1[nH]c2ccc(Cl)cc2c1NC(=O)C1CC1 ?
D2 agonist: 1.3; Menin-MLL FL inh: 3.6; gsp antag: -8%; Sfp PPTase inh: 20%; PINK1 expr mod: 11%; gsp ag: 11%; ClpP mod: 32µM*

How did CC1=C(C(=O)OCCOC(C)C)C(c2cc3c(cc2Br)OCO3)CC(=O)N1 (stereo unspecified) do in these assays?
D2 agonist: 3.1; Menin-MLL FL inh: -1.0; gsp antag: 12%; Sfp PPTase inh: 19%; PINK1 expr mod: -3.5%; gsp ag: 18%; ClpP mod: -0.7%

How did CSc1nncc(/C(C)=N/O)n1 do in these assays?
D2 agonist: -2.4; Menin-MLL FL inh: 9.2; gsp antag: 14%; Sfp PPTase inh: 17%; PINK1 expr mod: 1.6%; gsp ag: -15%; ClpP mod: -2.2%

What do the screens show for `O=C(Nc1ccc(S(=O)(=O)Nc2nccs2)cc1)c1ccc(S(=O)(=O)N2CCOCC2)cc1`?
D2 agonist: -0.5; gsp antag: 9%; Sfp PPTase inh: 10%; PINK1 expr mod: 2.1%; gsp ag: -30%; ClpP mod: inconclusive

How did COC(=O)c1ccc(NC(=O)Cn2nc(C)c3ccccc3c2=O)cc1 do in these assays?
D2 agonist: -4.8; Menin-MLL FL inh: 0.0; gsp antag: 5%; Sfp PPTase inh: 17%; PINK1 expr mod: 2.6%; gsp ag: 2%; ClpP mod: -1.5%

What do the screens show for `Cc1cccc(Cn2cccc2/C=C2/C(=N)N3C=CSC3=NC2=O)c1`?
D2 agonist: -3.5; Menin-MLL FL inh: 6.0; gsp antag: -1%; Sfp PPTase inh: inconclusive; PINK1 expr mod: 6.3%; gsp ag: -5%; ClpP mod: -5.0%

Results for N=c1ccn(CC(=O)NC(N)=O)c2ccccc12 ?
D2 agonist: 0.9; Menin-MLL FL inh: 3.3; gsp antag: 3%; Sfp PPTase inh: 13%; PINK1 expr mod: -0.4%[38.3 µM]; gsp ag: -29%; ClpP mod: -30%

What do the screens show for `C=C(C)C(=O)Nc1cccc(C2=NOC3(C2)C[C@@H](C(N)=O)N(C(=O)c2cc([N+](=O)[O-])cc([N+](=O)[O-])c2)C3)c1` (stereo partly specified)?
D2 agonist: 12; Menin-MLL FL inh: 1.1; gsp antag: 9%; Sfp PPTase inh: 3%; PINK1 expr mod: 2.3%; ClpP mod: -1.6%

What do the screens show for `COc1cccc(N2CC(O)=C(c3ccccc3)C2=N)c1`?
D2 agonist: -2.7; Menin-MLL FL inh: 1.9; gsp antag: -25%; Sfp PPTase inh: 11%; PINK1 expr mod: -1.0%; gsp ag: 10%; ClpP mod: 0.8%

What do the screens show for `CCOC(=O)N1CCN(C(=O)CS(=O)(=O)c2cn(Cc3ccc(F)cc3)c3ccccc23)CC1`?
D2 agonist: -1.6; Menin-MLL FL inh: 0.1; gsp antag: -2%; Sfp PPTase inh: 4%; PINK1 expr mod: -1.1%; gsp ag: 14%; ClpP mod: 0.9%

How did Cc1cccc(NC(=O)COC(=O)COc2ccc3c(c2)CCC3)c1 do in these assays?
D2 agonist: -1.6; gsp antag: -7%; PINK1 expr mod: 2.7%; gsp ag: -20%; ClpP mod: 3.8%

How did O=C1Cc2cc(NS(=O)(=O)c3cc(F)ccc3F)cc3c2N1CCC3 do in these assays?
D2 agonist: 2.1; gsp antag: inconclusive; PINK1 expr mod: 1.3%; gsp ag: -2%[15.4 µM]

What do the screens show for `Cn1c(-c2ccc(F)cc2)cc2onc(-c3ccccc3Cl)c2c1=O`?
D2 agonist: -4.6; gsp antag: -8%; PINK1 expr mod: 0.1%; gsp ag: -4%; ClpP mod: -0.6%

How did CCNC(=S)N1CCC(NC(=O)c2ccco2)CC1 do in these assays?
D2 agonist: 0.7; Menin-MLL FL inh: -0.4; gsp antag: 11%; Sfp PPTase inh: 2%; PINK1 expr mod: -0.5%; gsp ag: -3%[15.4 µM]

Results for Cc1cccc(CCNC(=O)CCNC(=O)Cn2ccc3ccccc3c2=O)c1 ?
D2 agonist: -3.3; Menin-MLL FL inh: 0.8; gsp antag: -4%; Sfp PPTase inh: 10%; PINK1 expr mod: 1.1%; gsp ag: inconclusive; ClpP mod: -11%

What do the screens show for `C=CCN(C(=O)COc1ccccc1)c1nnc(-c2ccncc2)s1`?
D2 agonist: -1.2; Menin-MLL FL inh: -1.8; gsp antag: -13%; Sfp PPTase inh: 9%; PINK1 expr mod: 0.7%; gsp ag: 3%; ClpP mod: 379%

What do the screens show for `COc1cccc(Nc2ncc3nc(CCc4ccccc4)c(=O)n(C4CC4)c3n2)c1`?
Menin-MLL FL inh: inconclusive; Sfp PPTase inh: 7%; PINK1 expr mod: inconclusive

How did COc1ccccc1NC(=O)c1cc(Cl)ccc1NC(=O)c1ccco1 do in these assays?
D2 agonist: -1.1; Menin-MLL FL inh: 4.3; gsp antag: 10%; Sfp PPTase inh: 6%; PINK1 expr mod: 5.7%; gsp ag: -8%; ClpP mod: 93%

How did CCOC(=O)C(=CNc1cc(C)ccc1[N+](=O)[O-])C(=O)OCC do in these assays?
D2 agonist: 4.7; Menin-MLL FL inh: 1.2; gsp antag: inconclusive; Sfp PPTase inh: 29%; PINK1 expr mod: 0.9%; gsp ag: -12%; ClpP mod: 2.1%

What do the screens show for `O=C(O)c1ccccc1NC(=O)C1CCCO1` (stereo unspecified)?
D2 agonist: -2.0; Menin-MLL FL inh: 2.0; gsp antag: 2%; Sfp PPTase inh: 9%; PINK1 expr mod: 3.1%[38.3 µM]; gsp ag: -22%; ClpP mod: -11%

What do the screens show for `CC1CCCCN1C(=O)c1c(Cl)cnn1C` (stereo unspecified)?
D2 agonist: -1.3; gsp antag: 6%; Sfp PPTase inh: 17%; PINK1 expr mod: 2.6%; gsp ag: 27%; ClpP mod: 0.0%

Results for COc1cccc(C2C3CN(C)CC=C3C(C#N)=C(N)C2(C#N)C#N)c1OC (stereo unspecified) ?
D2 agonist: -5.9; Menin-MLL FL inh: inconclusive; gsp antag: -3%; Sfp PPTase inh: 6%; PINK1 expr mod: 35µM*; gsp ag: inconclusive; ClpP mod: inconclusive

What do the screens show for `CC(C)CN(CCCNC(=O)CN1C(=O)CSc2ccc(S(=O)(=O)N3CCOCC3)cc21)CC(C)C`?
D2 agonist: -6.1; Menin-MLL FL inh: -0.1; gsp antag: 3%; Sfp PPTase inh: 14%; PINK1 expr mod: 4.8%&0.8%; gsp ag: -3%; ClpP mod: -0.4%&-0.5%

How did CCC(C)(C)NC(=O)C1CCCN1C(=O)NC1CCCCC1 (stereo unspecified) do in these assays?
D2 agonist: -6.8; Menin-MLL FL inh: 0.9; gsp antag: 1%; Sfp PPTase inh: -2%; PINK1 expr mod: 0.2%; gsp ag: 19%[15.4 µM]

What do the screens show for `CCn1nnnc1SCC(=O)Nc1cccc(C)n1`?
D2 agonist: -1.4; Menin-MLL FL inh: 1.2; gsp antag: -6%; Sfp PPTase inh: 22%; PINK1 expr mod: -0.8%; gsp ag: -2%; ClpP mod: -1.2%

How did CCOc1cc(/C=C(\C#N)C(N)=O)ccc1OCc1c(C)no[n+]1[O-] do in these assays?
D2 agonist: -18; Menin-MLL FL inh: 4.7; gsp antag: -6%; Sfp PPTase inh: -2%; PINK1 expr mod: -1.6%; gsp ag: 30%; ClpP mod: -7.3%

How did CCOC(=O)CSc1nc(C)c2ccccc2n1 do in these assays?
D2 agonist: -1.1; Menin-MLL FL inh: -1.8; gsp antag: -6%; Sfp PPTase inh: -1%; PINK1 expr mod: 0.9%; gsp ag: inconclusive; ClpP mod: -17%
